Sa helicase inh – blocks Staphylococcus aureus DNA helicase; purified S. aureus helicase, fluorescence unwinding assay; about half of the hits fall short of the stated cut; inhibition, %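 (tested at about 80 µM)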; 120,000 tested, 0.05% active; AID 485395;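 active means both duplicates at 50% or more, or one of them with a favoured structure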;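 further: 0% = mean of negative control wells and 100% = mean of positive control wells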
MgrA-DNA mod – modulators of Staphylococcus aureus MgrA DNA binding; inhibition, %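 (about 10 µg/mL by stock and volumes)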; 84,000 tested, 0.13% active; fluorescence polarization;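 active means above 50% in either of two replicates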;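 further: 0% = protein plus DNA without compound and 100% = DNA alone without protein; higher means less MgrA bound to DNA so lower polarization; one replicate is shown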
Active calls of the source: *; . = not tested or not shown. Some of the compounds tested (hit frequency here may not be typical).

SMILES | Sa helicase inh | MgrA-DNA mod
COc1ccc(-n2c(C)cc(C(=O)COC(=O)c3ccc(O)cc3O)c2C)cc1 | 14 | .
COc1cc(/C=C(\C#N)C(N)=O)cc(CSc2nc3ccccc3s2)c1O | . | -0.8
CSc1nnc(CNC(=O)c2ccc(C(C)C)cc2)n1C(C)C | -3 | -1.8
CCCOc1ccc(CSC(=N)N)cc1Br | 21 | .
O=C(OCc1ccccc1)N1CCOCCOCCOCC1 | 12 | -0.8
COCC(C)n1cccc1 (stereo not drawn) | 10 | .
O=C(Cc1csc(-c2ccsc2)n1)Nc1cccc(C(=O)NC2CC2)c1 | -1 | .
O=C(O)c1c(-n2cccc2)sc2c1CCSC2 | 7 | .
O=C(CSc1ncnc2sc3c(c12)CCCC3)c1ccco1 | 2 | .
CN(C(=O)CCN1C(=O)c2ccccc2C1=O)C1CCCCC1 | . | -0.7
CC(=O)NC1=NC(=O)CN1C | . | -0.8
COC(=O)COc1c(Br)cc(Br)cc1C(=O)OC | . | 3.3
CCOC(=O)N1CCC(NCC2C(Oc3ccc(Cl)cc3)C(=O)N2c2ccccc2C)CC1 (stereo not drawn) | -14 | .
CN1CCN(c2nc3ccccc3nc2C(C#N)S(=O)(=O)c2ccccc2)CC1 (stereo not drawn) | 0 | .
CC1CN(CC(=O)Nc2ccc(C#N)cc2)CC(C)O1 (stereo not drawn) | -3 | .
COC(=O)C1CCN(c2c(N)n(Cc3ccccc3)c(=O)[nH]c2=O)CC1 | 15 | .
O=C(NC(=O)c1c(Cl)cccc1Cl)Nc1nc2cc(F)ccc2s1 | . | 1.2
CC1(C)CC2CC(C)(CN2C(=O)c2cccs2)C1 (stereo not drawn) | 10 | 2.8
Cc1cc(Br)cc2c(N=NC(N)=O)c(O)n(C)c12 | 27 | .
Cn1cccc1CN1CCS(=O)(=O)CC1 | . | 0.2
Cc1cn[nH]c1-c1cccs1 | . | -1.1
COc1ccc(NC(=O)Cn2cc(C#N)c3ccccc32)cc1 | 4 | -3.0
O=C(Nc1cccc(C(F)(F)F)c1)C1CC2CCCC(C1)C2=O (stereo not drawn) | -5 | .
COc1ccc(OC)c(S(=O)(=O)N2CCCC2C(=O)NC(C)c2ccccc2)c1 (stereo not drawn) | 4 | 4.2
Cc1cc(S(=O)(=O)Oc2ccc(Oc3ccccc3)cc2)c(Cl)cc1Cl | . | -1.5
Cc1ccc(C(=O)Nn2cnc3scc(-c4cccs4)c3c2=O)c(O)c1 | -6 | .
Cc1ccc(Sc2c(N)c3c(c(N)c2Sc2ccc(C)cc2)C(=O)c2ccccc2C3=O)cc1 | . | 3.1
NC(=O)NC(=O)CSC1CCCC1 | 8 | .
O=C(Nc1ccc2c(c1)OCO2)c1cccn(OCc2ccccc2F)c1=O | 14 | .
Cc1ccc2cc(C(N)=O)c(=N)oc2c1 | -2 | -1.9
COc1ccc(-c2c(C)oc3ccc(C)cc23)cc1 | 6 | 2.2
CCOc1ccccc1CN(CCc1ccc2c(c1)OCO2)Cc1ccccn1 | 12 | -3.4
Cc1cc(Nc2ccc(Cl)cc2)n(-c2ccccc2)n1 | 2 | .
O=C(O)CSc1ccc(-c2ccccc2)nn1 | 10 | .
O=C(CCC(=O)c1ccc(Cl)cc1)OCc1ccc(F)cc1 | -18 | -2.2
CC(NC(=O)COc1ccccc1)C1COc2ccccc2O1 (stereo not drawn) | 13 | 1.0
Cc1ccc(S(=O)(=O)Nc2ccc(C)cc2[N+](=O)[O-])cc1 | . | -2.7
COc1ccccc1CCC(=O)Nc1ccc2c(c1)OCCCO2 | 15 | .
O=C(O)c1ccc(C2SCC(=O)N2Cc2ccccc2)cc1 (stereo not drawn) | -11 | .
Cc1ccccc1NC(=O)Cn1c(=O)n(C2CCCC2)c(=O)c2ccccc21 | -11 | .
CCCCCCc1cc2cc(-c3csc(Nc4ccc(Cl)cc4Cl)n3)c(=O)oc2cc1O | . | -4.3
Cc1nc2sccn2c(=O)c1S(=O)(=O)N1CCC2(CC1)OCCO2 | 13 | .
N#Cc1ccc(OC(=O)c2cnccn2)cc1 | -7 | .
O=C(COC(=O)CC1SC(N2CCCC2)=NC1=O)Nc1ccc(Br)cc1 (stereo not drawn) | -12 | .
CCC(Nc1ccccc1)C(=O)N/N=C/c1cccs1 (stereo not drawn) | -6 | .
COc1cccc(CC(Cc2nc3ccccc3[nH]2)c2nc3ccccc3[nH]2)c1 (stereo not drawn) | 18 | 3.6
Cc1c(CNC(C)C23CC4CC(CC(C4)C2)C3)c(C(=O)O)c(C)n1Cc1ccccc1 (stereo not drawn) | 4 | -1.0
CN1C(=O)C(C)(C)c2cc(S(=O)(=O)N(C)Cc3ccco3)ccc21 | 1 | -0.7
O=C(Nc1ccc(-n2ccc(C(F)(F)F)n2)cc1)c1cccs1 | . | -2.5
Cc1ccc(/C=C/C(=O)OC(C)C(=O)c2cccc(Cl)c2)o1 (stereo not drawn) | -8 | .
CCc1nn(CC(=O)NCCc2ccc(S(N)(=O)=O)cc2)c(=O)c2cc3occc3n12 | 12 | -0.4
O=C1OC(c2cccc(F)c2)=N/C1=C\c1cccc2ccccc12 | 6 | 8.9
CCn1nc(C)cc1/C(N)=N/OC(=O)c1ccc(C(C)(C)C)cc1 | 7 | .
CCc1ccccc1N(CC(N)=O)S(=O)(=O)c1ccccc1 | 6 | 0.3
CC1SC(c2ccc3c(c2)OCO3)N(c2nc3ccccc3s2)C1=O (stereo not drawn) | 10 | 0.4
CCOC(=O)C12CNC(=O)C(C(=O)OCC)(CNC1=O)C2 | 4 | .

Further results:
SMILES | Sa helicase inh | MgrA-DNA mod
CCCc1cc2c(=O)c(-c3ccc4c(c3)OCO4)c(C)oc2cc1OC(C)=O | -7 | 0.0
COc1ccc(CNc2ncnc3c2oc2ccccc23)cc1OC | 0 | .
COc1cc(NC(C)=O)cc(OC)c1OC | 6 | -0.2
N#CCN(CC#N)C(=O)c1ccccc1 | 19 | -1.8
Cc1nn(Cc2nnc(SCC(=O)c3ccc(Cl)cc3)o2)c(C)c1Br | . | -0.7
CCOc1ccc(NC(=O)CCOc2ccccc2)cc1 | -9 | 3.5
O=C1CSC(c2ccc(Cl)cc2)N1O (stereo not drawn) | 8 | -3.5
COc1ccc(NC2CC(C)Nc3ccc(OC)cc32)cc1 (stereo not drawn) | -3 | -0.5

Three compounds from above, arranged by their value in MgrA-DNA mod, lowest first.
canonical_smiles | MgrA-DNA mod
O=C1CSC(c2ccc(Cl)cc2)N1O (stereo not drawn) | -3.5
COc1ccc(NC2CC(C)Nc3ccc(OC)cc32)cc1 (stereo not drawn) | -0.5
CCOc1ccc(NC(=O)CCOc2ccccc2)cc1 | 3.5

Next structures
SMILES | Sa helicase inh | MgrA-DNA mod
CCCCC(=O)OCc1nc(N)nc(Nc2ccccc2C)n1 | -4 | .
CN(CC(=O)Nc1ccccc1)CC(=O)Nc1ccc(F)cc1 | -15 | .
O=C(COC(=O)/C(=C/c1cccs1)c1cccs1)Nc1ccccc1 | 24 | .
Cc1[nH]c(C)c(S(=O)(=O)N(Cc2ccco2)C2CCCCC2)c1C(=O)N1CCCC1 | 23 | .
Cc1snnc1C(=O)Nc1c(C(C)(C)C)nn(C)c1C(C)(C)C | . | -1.6
COc1cc(Br)cc(C=Nc2ccccc2)c1O | . | -2.7
CC(=O)Nc1ccc(Nc2ncnc3c2cnn3Cc2ccc(Cl)cc2)cc1 | -1 | 0.1
CC(C)c1nnc(NC(=O)c2ccccc2C(F)(F)F)s1 | 13 | .
CCc1ncc(C(O)c2ccccc2)n1C (stereo not drawn) | 3 | .
CC(C)(C)C(=O)CSc1nncc2ccccc12 | 2 | 4.1
NC(=O)c1cc2ccccc2oc1=Nc1ccc(Br)cc1 | 0 | 0.4
CC(CC(=O)NN)C1(O)CCCCC1 (stereo not drawn) | -1 | 2.0
CCCCCCCCc1ccc(C(=O)CCC(=O)O)cc1 | . | 1.0
O=C1Nc2cc3c(cc2Sc2ccccc21)OCCO3 | -5 | .
Cc1ccccc1-n1c(=O)cc(NCC2CCCO2)[nH]c1=O (stereo not drawn) | 8 | .
CCN(CC)c1ccc(NC(=O)c2oc3ccc4c(c3c2C)C(=O)CC(C)(C)O4)c(C)c1 | -16 | .

Structures from the list above with a tert-butyl group, in the order listed:
SMILES | Sa helicase inh | MgrA-DNA mod
CCn1nc(C)cc1/C(N)=N/OC(=O)c1ccc(C(C)(C)C)cc1 | 7 | .
Cc1snnc1C(=O)Nc1c(C(C)(C)C)nn(C)c1C(C)(C)C | . | -1.6
CC(C)(C)C(=O)CSc1nncc2ccccc12 | 2 | 4.1

Next part:
SMILES | Sa helicase inh | MgrA-DNA mod
COc1ccc2c(c1OC)C(=O)N(c1ncn[nH]1)C2 | 7 | -1.4
O=C(c1cc2c(Cl)ccc3c2n1CCO3)N1CCN(c2ccccc2F)CC1 | 18 | .
FC(F)Sc1ccc(N=C=S)cc1 | 3 | .
Cc1[nH]c(=O)c(C#N)c(C)c1CCC(=O)O | 34 | .
O=c1cc(CSCc2n[nH]c(=O)[nH]2)c2ccccc2[nH]1 | 1 | -1.4
CC1(C)CC2CC(C)(CN2C(=O)COC(=O)c2ccc(S(=O)(=O)NCc3ccco3)cc2)C1 (stereo not drawn) | 5 | .
NC(=O)Nc1ccc(C(=O)O)cc1 | -1 | -4.2
CCn1nc(C)cc1-c1nnc(SCC(=O)c2ccc(C)cc2)o1 | . | -0.4
Cc1cccc(-n2nc(C)c(C(=O)N3CCc4ccccc43)c2-n2cccc2)c1 | -11 | .
CC(C)C1C(C#N)=C(N)Oc2n[nH]c(-c3ccccc3)c21 (stereo not drawn) | 0 | .
CCOc1ccc(NC(=O)CSc2nnnn2CC(=O)O)cc1 | 0 | -3.6
O=C(O)c1ccccc1CSc1ccc(C(F)(F)F)cn1 | . | -4.0
CCc1nn(CC(=O)NCc2ccc(F)cc2)c(=O)c2cc3sc(C)cc3n12 | 7 | 0.7
O=C(OCC(=O)c1ccc[nH]1)c1ccccc1 | 2 | .
O=c1c2ccccc2c2ccccc2c(=O)n1CC1CCCO1 (stereo not drawn) | 6 | .
COC(=O)c1ccc2c(=O)[nH]c(COC(=O)CNC(=O)c3cccs3)nc2c1 | 32* | .
O=C(CSc1nc2sc3c(c2c(=O)n1Cc1ccco1)CCC3)c1cccs1 | 7 | -1.8
Cc1nn(-c2ccccc2)c2sc(C(=O)N3CC(C)OC(C)C3)cc12 (stereo not drawn) | 9 | .
CCNc1nc(NCC)nc(SCC(=O)c2ccccc2)n1 | 14 | .
COc1cc(C(F)(F)F)c(-c2ncn[nH]2)cn1 | . | -0.2
Cc1cc(C)c(S(=O)(=O)NCc2ccc(C(=O)NCCc3ccc(Cl)cc3)cc2)c(C)c1 | 5 | 3.0
Cc1c(Cl)cccc1-n1ncnc1-c1ccc(F)cc1 | -2 | .
COc1ccccc1C(=O)Nc1nnc(-c2ccccc2)o1 | -13 | .
CSc1nc2ccccc2n1CC(=O)N(C)C1CCCCC1 | 15 | -1.2
Cc1cccc(Cl)c1-n1sc(=O)n(CC2CC2)c1=O | . | 16
COc1cc([N+](=O)[O-])c(OC)cc1SCC(=O)NNC(=O)c1cccc([N+](=O)[O-])c1 | . | -1.1
COc1ccc(CN(C)/C(C)=C/C(=O)C(F)(F)F)c(OC)c1OC | -2 | .
CC(=O)Oc1ccc2c(c1)CCC1C2CC[C@@]2(C)C1CC[C@@H]2OC(C)=O (stereo partly drawn) | . | -1.1
NS(=O)(=O)c1ccc(-c2ccc(/C=C3\SC(=S)N(Cc4ccccc4)C3=O)o2)cc1 | -22 | -3.1
Cn1c(=O)[nH]c(=O)c2[nH]c(Br)nc21 | 3 | .
CN1CC(=O)N(CCCC(=O)OCc2c(Cl)cccc2Cl)C1=O | -4 | .
COc1ccccc1-c1nnc(SCCNc2ncnc3sc4c(c23)CCC4)n1C | 7 | .

2 records drawn at random from the list so far, as already listed:
SMILES | Sa helicase inh | MgrA-DNA mod
COc1ccc(CN(C)/C(C)=C/C(=O)C(F)(F)F)c(OC)c1OC | -2 | .
COc1ccccc1-c1nnc(SCCNc2ncnc3sc4c(c23)CCC4)n1C | 7 | .

(continued)
SMILES | Sa helicase inh | MgrA-DNA mod
O=C(CSc1nnc2ccccn12)NCC(=O)Nc1ccc(F)cc1 | 7 | .
FC(F)(F)c1cccc(-c2noc(-c3ccccc3)n2)c1 | . | -2.5
Cc1ccc2c(CN(Cc3cccs3)C(C)C)cc(=O)oc2c1 | 5 | 0.7
O=C(O)c1cc2cc(OCc3ccccc3)ccc2[nH]1 | . | -3.2
CCC(NC(=O)c1ccc(C#CC2(O)CCCCC2)cc1)C(=O)O (stereo not drawn) | 16 | 4.8
CC(=O)Oc1ccc2occ(C(=O)c3cc4ccccc4o3)c2c1 | 3 | -0.1
Cc1cc(CNCc2ccc(CN3CCOCC3)cc2)c(C)n1-c1ccnn1C(C)C | 18 | .
c1cc2c3c(cccc3c1)NC(c1ccncc1)N2 | 14 | 5.7
CC(C)N1C(=O)C2C3C=CC(O3)C2C1=O (stereo not drawn) | 6 | 2.0
Cc1nn(CC(=O)O)c(C)c1C | 0 | -4.1
CC(C#N)Sc1nnc(-c2nn(Cc3ccccc3)c(=O)c3ccccc23)o1 (stereo not drawn) | 1 | .
CS/C(=N\S(=O)(=O)c1cc(C(F)(F)F)cc(C(F)(F)F)c1)N1CCOCC1 | . | 0.9
CSc1ncccc1C(=O)NCc1ccccc1C(F)(F)F | 0 | 0.9
COc1ccc(CNCCC2(Cc3ccccc3)CC(C)N(C)CC2C)cc1OC (stereo not drawn) | -3 | -1.2
CN(C(=O)C1CCCN(c2ncnc3onc(-c4ccc(F)cc4)c23)C1)c1ccccc1 (stereo not drawn) | -12 | .
O=c1[nH]ccn(-c2cccc(Cl)c2)c1=O | 9 | .
CC1(C)C(=O)Nc2ccccc2N1C(=O)CSc1nc2ccccc2[nH]1 | -10 | .
Cn1c(=O)n(C)c2cc(C(=O)O)ccc21 | 8 | .
COc1cc(C(=O)Nc2cc(C)c3c(=O)oc4ccccc4c3n2)cc(OC)c1OC | -23 | .
c1ccc(Nc2ncnc3c2sc2ncccc23)cc1 | . | -2.5
ClC(=Nc1ccccc1)c1ccccc1 | -2 | -1.6
Cn1c(Cc2nnc(Nc3ccc(S(=O)(=O)N4CCOCC4)cc3)s2)nc2ccccc21 | -13 | .
